Bead autofluor = flagged as autofluorescent in microsphere protease counterscreen; compound autofluorescence counterscreen, microsphere flow cytometry; active compounds read high; fluorescence intensity (no concentration beside the values); 360,000 compounds, 3.1% hits; AID 624483;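 active = at least 3 SD above the mean of all compounds, about 16000 in these data; inconclusive = too few beads counted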;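 also: 100 nL of 1 mM stock went into each well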
Sa ugtP lethal = growth inhibition of ugtP-null S. aureus, primary screen, RN4220 ugtP deletion, OD600 | growth inhibition, % (no concentration beside the values) | 16 h; some inactives read as strong as hits | AID 1259309, 2017 | 330,000 compounds, 0.54% hits;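 active = z-score under -3 and OD600 up to 0.15 on both plates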;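 also: plate controls were untreated wells for no effect and antibiotic for full effect; wells of about 80 µL received 100 nL stock; the first replicate is given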
PrP UTR inh = inhibition of PrP 5' UTR reporter expression; cell-based PrP 5' UTR mRNA reporter, plate reader; inhibition, % (test concentration not listed); 340,000 compounds, 0.35% hits; AID 488862, 2010;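 active = every replicate at 50% or more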;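 also: 0 = median of the neutral control wells; tested in H4 reporter cells; numbers are from one replicate; inactives centre near -14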
RN4220 kill = growth inhibition of S. aureus RN4220, primary screen, OD600 | 16 h | inhibition, % (test concentration not listed) | 330,000 compounds, 0.33% hits | AID 1259311, 2017;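 active = z-score of -3 or lower and OD600 up to 0.18 on both plates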;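 also: plate controls were untreated cells for no effect and reference antibiotic for full effect; stock transfer was 100 nL into about 80 µL; one replicate is shown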
BJeLR lethal = MLPCN primary cell-based screen for lethality selective to Ras in HRASV12 cells; BJeLR (HRASV12) viability, CellTiter-Glo ATP luminescence, 48 h; reference of the scale not given here; inhibition, % (concentration not given with the values); 300,000 compounds, 0.17% hits; AID 1554, 2009;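 active = replicate mean above 50%; inconclusive = above 50% but judged a plate artefact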;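 also: 50 nL library stock added to about 25 µL; numbers are from one replicate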
Mtb hypoxia rep = PubChem AID 1159583; M. tuberculosis hypoxia-regulated fluorescent reporter, fluorescence; 300,000 compounds, 0.1% hits; fluorescence inhibition, % (test concentration not listed);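 active = 35 to 45% if threefold the growth effect, above 45% if 1.5-fold the growth effect; inactive = the rest, general growth blockers included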;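 also: wells of about 50 µL received 100 nL stock; 0% = vehicle wells and 100% = reference inhibitor wells; whole bacteria with a GFP reporter of the hypoxia response; strong numbers were not always called active; many hits fall short of the cut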
Mtb hypoxia rep growth = also measured in Mtb hypoxia rep; calls as there; growth inhibition, %; measured here: M. tuberculosis growth (absorbance);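 0% = vehicle and 100% = reference antibiotic; read after six days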
Numbers without * were called inactive; ? = inconclusive; . = no result given.

#1 COc1ccc2[nH]c3c4c(ccc3c2c1)C(=O)C=CC4=O
#2 CC(CC(=O)Nc1ccc(Br)cc1)=NNC(=O)Cc1csc(N)n1
#3 COc1ccc2cc(C#N)c(SCC(=O)Nc3nonc3C)nc2c1
#4 O=C(NC1CCCC1)C(=O)N(Cc1cccnc1)C(C(=O)NCc1ccco1)c1ccccc1F (configuration not stated)
#5 CCCN1/C(=C2/SC(=S)N(CC)C2=O)C=Cc2ccccc21
#6 COc1ccc(-c2csc3ncn(-c4ccccc4)c(=O)c23)cc1OC
#7 COC(=O)CC1SC(=O)NC1=Nc1ccc(C)cc1 (configuration not stated)
#8 COc1cc(C=NNC(N)=O)cc(Br)c1OCc1ccc(C)cc1
#9 CC(=NNc1nncc2ccccc12)c1ccc(Cl)c([N+](=O)[O-])c1
#10 CCOC(=O)Nc1nc(-c2ccccc2)c(C(=O)c2ccc(Cl)cc2)s1
compound no.	1	2	3	4	5	6	7	8	9	10
Bead autofluor	2638	.	3951	4345	.	4351	8879	.	.	3276
Sa ugtP lethal	0	2	-10	5	4	-1	4	-4	-5	-11
PrP UTR inh	-18	.	-23	14	-11	-27	-8	.	.	-1
RN4220 kill	3.0	4.7	3.4	8.4	2.3	1.4	3.7	4.4	6.5	-5.4
BJeLR lethal	.	.	-4	6	2	-6	-7	.	.	33
Mtb hypoxia rep	4	3	14	14	.	0	10	6	1	2
Mtb hypoxia rep growth	-1	-2	4	3	.	5	12	7	14	11

#11 CSc1oc(-c2ccco2)nc1S(=O)(=O)c1ccc(C)cc1
#12 Cc1onc(-c2ccccc2)c1C(=O)NCc1cccs1
#13 O=C(O)CSCCC(=O)Nc1ccc(F)cc1
#14 CCCCn1c(CNC(=O)CCC)nc2ccccc21
#15 CC1CCCC(C)N1N=Cc1ccccc1F (configuration not stated)
#16 CC1CCN(C(=O)COC(=O)c2ccc3c(c2)C(=O)N(Cc2ccco2)C3=O)CC1
#17 COc1ccc(Cc2noc(CN(C)CCc3ccccc3)n2)cc1OC
#18 CNC(=O)c1[nH]cnc1C(=O)NC(Cc1ccccc1)C(=O)OC(C)(C)C (configuration not stated)
#19 CC(C)OC(=O)CSc1nnc(-c2ccc(Cl)cc2)n1N
#20 CCc1noc(C)c1C(=O)N(CC)CC(=O)Nc1ccccc1C(F)(F)F
compound no.	11	12	13	14	15	16	17	18	19	20
Bead autofluor	5847	3460	10454	4970	.	6770	4530	.	21439*	.
Sa ugtP lethal	3	10	-1	-3	8	1	9	8	5	2
PrP UTR inh	-3	-15	-1	-18	.	0	-29	.	-10	-38
RN4220 kill	4.6	11	3.0	2.2	-1.1	4.4	2.3	7.4	3.1	1.9
BJeLR lethal	-9	4	5	3	.	.	7	.	0	6
Mtb hypoxia rep	1	.	-11	4	-2	7	12	4	-2	-1
Mtb hypoxia rep growth	1	.	-4	-4	0	6	5	4	6	1

Compound profiles, as listed above. Screens in order: Bead autofluor, Sa ugtP lethal, PrP UTR inh, RN4220 kill, BJeLR lethal, Mtb hypoxia rep, Mtb hypoxia rep growth
CCCCn1c(CNC(=O)CCC)nc2ccccc21 in the list: 4970, -3, -18, 2.2, 3, 4, -4
O=C(O)CSCCC(=O)Nc1ccc(F)cc1 in the list: 10454, -1, -1, 3.0, 5, -11, -4
Cc1onc(-c2ccccc2)c1C(=O)NCc1cccs1 in the list: 3460, 10, -15, 11, 4, ., .
CC1CCN(C(=O)COC(=O)c2ccc3c(c2)C(=O)N(Cc2ccco2)C3=O)CC1 in the list: 6770, 1, 0, 4.4, ., 7, 6

(next part)
#21 O=C(COc1ccc(-c2nnco2)cc1)Nc1ccc(C(F)(F)F)cc1
#22 COc1ccc(C(C)C)cc1S(=O)(=O)NCCCn1ccnc1
#23 Cc1ccc(NC(=O)C2CC(O)CN2C(=O)OCc2ccccc2)c(C)c1 (configuration not stated)
#24 Cc1ccc(-c2nnc(N3CCCCC3)c3ccccc23)cc1
#25 CC(=O)Nc1cccc(OC(=O)c2ccoc2C)c1
#26 Cc1ccc(S(=O)(=O)Nc2c(C)nn(C)c2C)cc1
#27 CC1=Nc2ccccc2NC(=O)C1Sc1nnc(C)s1 (configuration not stated)
#28 Cc1ccc(NC(=O)c2ccc(NCc3ccco3)c([N+](=O)[O-])c2)cc1Cl
#29 CCCN(CC(=O)Nc1cc(C)on1)S(=O)(=O)c1cccc(C(F)(F)F)c1
#30 Cc1ccsc1C(=O)NNC(=O)COc1ccccc1Cl
compound no.	21	22	23	24	25	26	27	28	29	30
Bead autofluor	6068	3146	5756	6043	9308	6048	3718	2580	4162	5182
Sa ugtP lethal	-3	12	8	-21	8	-3	4	0	6	5
PrP UTR inh	-14	-14	-4	-27	-26	-3	3	-40	-9	-28
RN4220 kill	0.1	3.0	-1.6	-2.4	0.0	0.2	1.0	0.0	12	0.3
BJeLR lethal	12	-11	-3	0	-3	-4	-3	3	-4	-4
Mtb hypoxia rep	7	4	1	20	7	2	.	-4	1	1
Mtb hypoxia rep growth	-2	-4	4	31	-1	1	.	4	9	3

#31 C=CCc1ccc(OCCCCN2CC(C)OC(C)C2)c(OC)c1 (configuration not stated)
#32 C=CCC(C=C)S(=O)(=O)c1ccc(C)cc1 (configuration not stated)
#33 CCc1ccc(C2=NN(CCC(=O)NCC3CCCO3)C(=O)CC2)cc1 (configuration not stated)
#34 CCN1C(=O)NC(c2ccco2)C(C(=O)OC)=C1C (configuration not stated)
#35 COc1ccc(CCNC(=O)c2cccc([N+](=O)[O-])c2)cc1OC
#36 COc1ccc(NC(=O)COC(=O)CN2C(=O)C3CC=CCC3C2=O)c([N+](=O)[O-])c1 (configuration not stated)
#37 C=CCN=Cc1c(C)[nH]n(-c2ccccc2)c1=O
#38 O=C(Nc1cc([N+](=O)[O-])ccc1C(=O)Nc1cccnc1)c1ccccc1
#39 COc1cc(NC(=O)c2ccc3c(c2)OCO3)c2ncccc2c1
#40 Cc1cc(=O)[nH]c(N/N=C/C2=C(N3CCOCC3)C(=C\c3ccc(Cl)cc3)/CC2)n1
compound no.	31	32	33	34	35	36	37	38	39	40
Bead autofluor	3771	6788	5375	.	4415	6505	2088	6414	4102	2395
Sa ugtP lethal	10	11	2	-1	1	1	3	-7	-5	.
PrP UTR inh	-10	3	-18	.	-18	-6	-33	-13	-17	-12
RN4220 kill	4.9	9.0	4.1	3.4	-1.1	1.2	2.3	3.3	2.7	.
BJeLR lethal	2	-7	-3	.	-10	.	6	1	2	2
Mtb hypoxia rep	9	6	5	10	-6	-6	14	1	.	.
Mtb hypoxia rep growth	1	1	-4	11	-6	-7	6	5	.	.

#41 O=C(CCC1CCN(C(=O)c2ccco2)CC1)NCc1ccc(F)cc1
#42 O=C(OC(c1ccccc1)c1nccc2ccccc12)c1cccc([N+](=O)[O-])c1 (configuration not stated)
#43 O=C(NNC(=O)c1ccc2ccccc2c1O)c1ccccc1Cl
#44 CCCn1c(NCc2ccc(N(C)C)cc2)nc2ccccc21
#45 Nc1cc(N)nc(SCC(=O)N2CCN(C(=O)c3ccco3)CC2)n1
#46 CC[C@H](C)[C@@H](C(=O)N1CCNCC1)n1cc([C@@H](N)Cc2ccc(O)cc2)nn1
#47 COCCNC(=S)N(Cc1cccs1)Cc1cc2cccc(C)c2[nH]c1=O
#48 Cc1cc(C)c(OCC(=O)Nc2cccc(O)c2)cc1C
#49 CC(C)N(Cc1ccccc1)C(=O)c1ccc2nsnc2c1
#50 Cc1ccc(CCNC(=O)c2cccc(N3CCCC3=O)c2)cc1
compound no.	41	42	43	44	45	46	47	48	49	50
Bead autofluor	5222	2167	2932	4594	9812	3905	5031	3036	6088	4814
Sa ugtP lethal	2	12	-19	5	-2	.	5	-10	4	1
PrP UTR inh	-4	-35	-55	-24	-12	-30	-16	-147	-24	-31
RN4220 kill	-0.3	-1.8	2.4	-3.1	1.5	.	0.2	2.4	3.2	0.4
BJeLR lethal	4	-2	9	-4	6	-6	4	-11	-6	-4
Mtb hypoxia rep	6	-2	.	-2	-8	.	5	8	7	10
Mtb hypoxia rep growth	6	0	.	0	-7	.	-3	3	9	-7

#51 CNc1nc(SC)nc(N(C)C#N)n1
#52 COc1cccc(-c2cc(C(=O)NN=Cc3cccc(OC)c3OC)c3ccccc3n2)c1
#53 CCS(=O)(=O)Nc1ccc(-c2ccc(NS(=O)(=O)CC)c(OC)c2)cc1OC
#54 C/C(=N\NC(=O)COc1ccc2ccccc2c1)c1cccs1
#55 COc1cc2[nH]c(=S)nc(NCc3ccc(Cl)cc3)c2cc1OC
#56 Cc1ccc(S(=O)(=O)c2nc(S(=O)(=O)CCO)sc2N2CCOCC2)cc1
#57 NC(=O)c1sc2nccc(Nc3ccccc3)c2c1N
#58 O=C(Nc1ccc(S(=O)(=O)N2CCCCC2)cc1)C1CC1
#59 COc1cccc(CNC(=O)CCS(=O)(=O)c2cc3c(cc2C)NC(=O)CO3)c1
#60 COC(=O)c1cc2n3ccccc3c(C)c(-c3ccccc3)c-2c1C(=O)OC
compound no.	51	52	53	54	55	56	57	58	59	60
Bead autofluor	2497	.	2134	6033	3888	5737	4293	3121	6172	2576
Sa ugtP lethal	8	15	-1	.	-11	12	0	13	-8	-10
PrP UTR inh	-20	.	-1	-28	-7	-4	31	-10	-5	-16
RN4220 kill	3.1	-0.6	1.9	.	0.6	5.4	5.1	4.4	-3.5	-1.7
BJeLR lethal	11	.	-3	-3	1	2	5	-6	-19	2
Mtb hypoxia rep	12	-1	18	.	-15	1	-2	8	-6	15
Mtb hypoxia rep growth	10	-4	4	.	3	5	10	-2	-6	1

Brought forward from above: four compounds, then new ones.
#57 NC(=O)c1sc2nccc(Nc3ccccc3)c2c1N
#58 O=C(Nc1ccc(S(=O)(=O)N2CCCCC2)cc1)C1CC1
#59 COc1cccc(CNC(=O)CCS(=O)(=O)c2cc3c(cc2C)NC(=O)CO3)c1
#60 COC(=O)c1cc2n3ccccc3c(C)c(-c3ccccc3)c-2c1C(=O)OC
#61 CC1=C(C#N)C(c2cccnc2)C2=C(CC(C)(C)CC2=O)N1 (configuration not stated)
#62 O=S1(=O)c2ccccc2Nc2ccccc21
#63 O=P(O)(CCc1ccccc1)C(O)c1ccccc1 (configuration not stated)
#64 COCc1nc(-c2cc(Br)ccc2OC)no1
#65 CS(=O)(=O)c1ccc(C(=O)N2CCC(C(=O)O)(c3ccccc3)CC2)cc1
#66 CCNc1nc(NCc2ccccc2)nc(SCC(=O)Nc2ccccc2)n1
#67 O=C(CSc1nnc(-c2ccncc2)n1CC1CCCO1)Nc1nccs1 (configuration not stated)
#68 CCOc1ccccc1OCCCC(=O)Nc1ccc(OC)nc1
#69 CCCCn1c(N)c(N(CC(C)C)C(=O)c2oc3ccc(Br)cc3c2C)c(=O)[nH]c1=O
#70 COc1cc(NC(=O)c2ccco2)c(OC)cc1NC(=O)CSc1nnc(-c2cccs2)n1C
#71 Cc1ccc(CCNC(=O)CSCc2ccc(F)cc2)cc1
compound no.	57	58	59	60	61	62	63	64	65	66	67	68	69	70	71
Bead autofluor	4293	3121	6172	2576	3128	3162	2043	4947	3835	2670	3791	10268	?	22652*	3944
Sa ugtP lethal	0	13	-8	-10	-3	3	4	-5	-2	-17	4	-3	2	0	-3
PrP UTR inh	31	-10	-5	-16	-10	-6	-8	-30	-18	2	-13	-23	-18	-15	-7
RN4220 kill	5.1	4.4	-3.5	-1.7	6.6	3.2	2.5	1.5	-0.1	4.1	2.1	3.6	0.3	-1.0	1.4
BJeLR lethal	5	-6	-19	2	-5	0	2	3	1	23	-4	2	-10	-6	-5
Mtb hypoxia rep	-2	8	-6	15	1	7	.	.	8	-2	.	4	5	-6	3
Mtb hypoxia rep growth	10	-2	-6	1	6	2	.	.	-6	-3	.	11	0	-6	3

Screening results deposited in PubChem BioAssay by several laboratories.

Not a hit list; any-hit rate near 4%.
